# Screening results (PubChem)
# Rango dissoc inh – inhibitors of RanGTP-induced Rango-importin beta complex dissociation; O95149+P62826; Biochemical FRET Rango-importin beta, RanGTP-induced dissociation; Potency, µM (doses to about 46.1 µM), for inactives: at the top dose activity change, negative = inhibition; actives 0.071% (n = 340,000); active means falling FRET ratio curve, often poorly fitted, with flat reads before Ran was added; inconclusive means other falling curves, or compound fluorescence or quenching; inactive means flat or rising ratio curve;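 note: potency is the fitted concentration of half-maximal effect; % of control where 0% means no effect; nearly all actives have a fitted effect of over 45% in size; -100% = wells without RanGTP and RCC1; the record marks most hits as doubtful in a second field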
#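 Quantitative HTS using a FRET biosensor: 0.1 uM Rango, 0.25 uM importin beta, 0.6 uM Ran, 2 mM GTP, 0.2 uM RCC1 final, PBS with DTT, Tween-20 and BSA. Post-read taken 45 min after Ran addition.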
# Rango-impB inh – Rango-importin beta binding inhibition; Q14974; Rango CFP/YFP FRET sensor + importin beta, 45 min; Potency, µM (titrated, usually from 92.2 µM), for the others: top-dose inhibition of complex formation; actives 0.031% (n = 340,000); active = rising FRET ratio curve, often small or poorly fitted; inconclusive = mostly compound fluorescence or quenching in the first reads; inactive = flat curves in all reads;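 note: potency is the fitted concentration of half-maximal effect; 0% = DMSO wells and 100% = buffer wells lacking importin beta; nearly all actives have a fitted effect of over 15% in size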
# Target sequence (Q14974 whole entry, looked up): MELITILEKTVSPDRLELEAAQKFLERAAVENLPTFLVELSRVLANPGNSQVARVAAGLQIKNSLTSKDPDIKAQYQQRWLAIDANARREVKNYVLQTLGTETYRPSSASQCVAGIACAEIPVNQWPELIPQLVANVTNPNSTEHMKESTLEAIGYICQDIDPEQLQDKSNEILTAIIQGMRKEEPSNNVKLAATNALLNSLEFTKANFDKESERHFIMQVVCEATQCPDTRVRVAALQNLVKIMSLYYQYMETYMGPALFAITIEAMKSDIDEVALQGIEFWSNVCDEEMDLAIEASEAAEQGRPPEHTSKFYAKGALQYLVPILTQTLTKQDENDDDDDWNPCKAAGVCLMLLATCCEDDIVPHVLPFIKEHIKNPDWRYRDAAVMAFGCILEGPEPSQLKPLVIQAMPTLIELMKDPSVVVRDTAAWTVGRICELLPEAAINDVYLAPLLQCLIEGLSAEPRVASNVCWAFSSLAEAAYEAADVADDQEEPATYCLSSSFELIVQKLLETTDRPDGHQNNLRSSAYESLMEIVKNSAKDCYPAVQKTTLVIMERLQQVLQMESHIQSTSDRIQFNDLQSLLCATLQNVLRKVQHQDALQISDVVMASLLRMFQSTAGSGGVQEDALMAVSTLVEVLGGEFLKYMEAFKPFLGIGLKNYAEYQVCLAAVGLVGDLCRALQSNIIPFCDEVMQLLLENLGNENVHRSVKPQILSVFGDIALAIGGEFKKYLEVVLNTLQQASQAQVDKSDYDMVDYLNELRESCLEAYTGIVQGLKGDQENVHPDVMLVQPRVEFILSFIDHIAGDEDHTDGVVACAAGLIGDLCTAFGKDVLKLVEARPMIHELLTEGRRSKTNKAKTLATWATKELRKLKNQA
#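 FRET biosensor (snurportin 1 IBB flanked by EYFP and cerulean), 50 nM, with compound 5 min, then 0.125 microM importin beta in PBS, 1 mM DTT, 0.02% Tween-20, 0.1% BSA. CFP/YFP ratio read after 45 min at room temperature; pre-read flags interference.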
# GLA inh pH 4.5 – inhibitors of human alpha-galactosidase A at pH 4.5 | activity change, negative = inhibition, % at 105 µM | P06280 | purified enzyme, 4-MU-alpha-Gal fluorescence, pH 4.5 | AID 1467 | 230,000 tested, under 10 active; inconclusive = small, poorly fitted or top-dose-only inhibition, or a rising curve; inactive = flat fitted curve, though single readings scatter; no compound was filed as active;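 note: 0% = full activity with enzyme and -100% = basal without enzyme; dose as in the result columns while the protocol names 77 µM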
# miR-21 reporter – miR-21 reporter, rising signal. HeLa miR-21 FLuc reporter, luciferase, 48 h. Potency, µM (doses to about 38.3 µM), for the others: top-dose reporter change, positive = more light. 340,000 tested, under 10 active; active = well fitted rising curve with a large enough effect; inconclusive = small, poorly fitted or top-dose-only effect; inactive = no such curve, though single readings can be large or run the other way;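 note: % of control where 0% means no effect; miR-21 action dims this reporter so a rising signal means less miR-21 action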
#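 HeLa cells stably expressing CMV-driven firefly luciferase with a downstream miR-21 binding sequence, endogenously expressing miR-21, were treated with titrations (up to about 40uM final) for 48 hours at 37 degree Celsius. Luciferase luminescence was read after lysis.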
# * hit, by the source's call; ? = inconclusive; / = no result given; & = joins results of further samples; [ ] = another dose, or the depositor's remark. An excerpt; rates above refer to the full screens.
# The line under a structure holds: Rango dissoc inh | Rango-impB inh | GLA inh pH 4.5 | miR-21 reporter
Cc1ccc(-c2nn(CCC(N)=O)c(=O)c3ccccc23)cc1
    -4% | 4.1% | / | -1%&-2%
CCOC(=O)C1C(=O)NC(c2ccccc2)=NC1c1ccc(Cl)cc1 (stereo unspecified)
    0% | 0.2% | 3 | 1%
Nc1cc(Cl)ccc1Oc1ccc(Cl)cc1
    0% | 4.8% | 7 | -7%
C/C(=N\NC(=O)c1ccn(C)n1)c1cccc(NC(=O)c2ccc(C)s2)c1
    -1% | 2.0% | 8 | -45%
O=C(O)CCc1ccc(-c2ccc(Cl)cc2)o1
    13% | -2.5% | 4 | -3%
CCO/N=C1\C(=O)N(c2ccccc2)c2ccccc21
    3% | ? | -4 | -13%
CCNC(=O)CN1c2cccc3cccc(c23)S1(=O)=O
    -12% | -3.4% | 0 | -3%
COC(=O)C1=C(N)c2ccccc2C1(C#N)c1ccccc1 (stereo unspecified)
    2% | -1.6% | 2 | 13%
CC1CCN(S(=O)(=O)c2nnc(NC(=O)c3ccccc3Br)s2)CC1
    12% | -0.2% | / | 0%
COc1ccc(OCc2n[nH]c(=S)n2N)cc1
    13% | -1.0% | -4 | -5%
COc1ccc(NC(=O)c2ccc(COCC(F)(F)C(F)F)cc2)cc1
    -10% | -2.3% | 6 | -29%
CCN(C(=O)CSc1nnc2ccccn12)c1c(N)n(Cc2ccccc2)c(=O)[nH]c1=O
    14% | -1.6% | 1 | -3%
Cc1cc(Cl)ccc1OCC(=O)NCC(c1cccs1)N1CCOCC1 (stereo unspecified)
    -12% | ? | / | /
O=C(O)c1cn(Cc2cccnc2)c(=O)c2ccccc12
    / | / | 5 | 0%
COc1cc(O)c(C(CC(=O)N2CCCC2)c2ccc3c(c2)OCO3)c(OC)c1 (stereo unspecified)
    -8% | -0.2% | 8 | 12%
O=C(Nc1nnc(SCc2ccccc2)s1)c1cc2c(s1)CCCC2
    -8% | -0.5% | -5 | -31%
N[C@H]1C(O)O[C@H](CO)[C@@H](O)[C@@H]1O (stereo partly specified)
    0% | 2.7% | / | /
COCc1cc(C)nc(SCc2ccccc2Cl)c1C#N
    -2% | 1.1% | / | -10%
CCOC(=O)c1cnn2c(C(F)F)cc(C3CC3)nc12
    1% | 0.6% | 0 | -14%
NC(=O)C1CCCN(C(=O)CN2C(=O)NC(c3ccccc3)(c3ccccc3)C2=O)C1 (stereo unspecified)
    6% | -0.5% | / | /

# Whole records as entered above. Screens in order: Rango dissoc inh | Rango-impB inh | GLA inh pH 4.5 | miR-21 reporter
# `Cc1cc(Cl)ccc1OCC(=O)NCC(c1cccs1)N1CCOCC1` (stereo unspecified) in the list: -12% | ? | / | /
# `O=C(O)c1cn(Cc2cccnc2)c(=O)c2ccccc12` in the list: / | / | 5 | 0%
# `COc1ccc(NC(=O)c2ccc(COCC(F)(F)C(F)F)cc2)cc1` in the list: -10% | -2.3% | 6 | -29%

# Returning to the listing, repeating the two entries before the break.
# The line under a structure holds: Rango dissoc inh | Rango-impB inh | GLA inh pH 4.5 | miR-21 reporter
CCOC(=O)c1cnn2c(C(F)F)cc(C3CC3)nc12
    1% | 0.6% | 0 | -14%
NC(=O)C1CCCN(C(=O)CN2C(=O)NC(c3ccccc3)(c3ccccc3)C2=O)C1 (stereo unspecified)
    6% | -0.5% | / | /
CCOc1ccccc1OCC(=O)O
    -1% | 2.9% | -3 | -1%
O=S(=O)(/N=C(/NS(=O)(=O)c1ccccc1)c1ccccc1)c1ccccc1
    -14% | -0.2% | -1 | -2%
O=[N+]([O-])c1ccc(N2CCCCCC2)c(S(=O)(=O)N2CCCCC2)c1
    -9% | 1.8% | 1 | -16%
Cc1c(Br)c([N+](=O)[O-])nn1CCCC(=O)Nc1sc2c(c1C(N)=O)CCC(C)C2 (stereo unspecified)
    4% | -1.0% | 3 | -12%
COc1ccc(-c2cc(C(=O)N3CCN(c4cccc(C)c4C)CC3)c3ccccc3n2)cc1OC
    25% | 1.6% | / | /
CCN(CC)C(=O)N1CCC(NC(=O)c2ccc(C(C)(C)C)cc2)CC1
    -12% | 1.0% | 0 | 8%
CC(NC(=O)c1ccc(Cl)cc1)C(=O)NC1=NCCS1 (stereo unspecified)
    -8% | -1.1% | 5 | -4%
CCn1c(SCC(=O)Nc2cc(C)on2)nc2sc3c(c2c1=O)CCCC3
    12% | -1.8% | 2 | -10%
CC1CCCN(c2ccc(F)cc2N)C1 (stereo unspecified)
    11% | 1.2% | -15 | -5%
CCOC(=O)c1c(C)oc2c1c(C(c1ccncc1)N1CCOCC1)c(O)c1ccccc12 (stereo unspecified)
    3% | -3.0% | -13 | -89%
Cn1cc(Br)c(C(=O)NC2CCCCC2)n1
    1% | -1.1% | 0 | -8%
O=[N+]([O-])c1cc(C=NN2CCCCCC2)ccc1Cl
    1% | 2.3% | / | /
O=C(CCc1ccc(S(=O)(=O)N2CCOCC2)cc1)N/N=C/c1ccc(F)cc1F
    1% | 0.2% | -2 | -1%
CC(C)C(NC(N)=O)C(=O)NC1CCCCC1 (stereo unspecified)
    / | / | -4 | -3%
O=C1CSc2ccccc2N1
    -11% | -0.6% | / | /
O=C(COC(=O)c1cc([N+](=O)[O-])ccc1NCCO)Nc1cccnc1Cl
    7% | 7.4% | / | /
Cc1c(C(=O)Nc2ccccc2F)sc2ncn(CC(=O)N3CCCCC3)c(=O)c12
    -1% | -3.0% | / | 0%
COc1ccccc1OCCCC(=O)Nc1nnc(C2CCCO2)s1 (stereo unspecified)
    -2% | 5.0% | / | -1%
Cc1cccc(C(=O)N2CCNC(=O)C2CC(=O)Nc2cccc(Cl)c2)c1 (stereo unspecified)
    19% | 2.2% | / | -9%
Cc1ccc(-n2[nH]c(C)c(C=Nc3ccc(S(=O)(=O)Nc4nccs4)cc3)c2=O)cc1C
    2% | 0.0% | -5 | -17%
CC(C)N(C(=O)CSc1ncnc2sc(-c3ccccc3)cc12)C(C)C
    28% | -0.1% | -1 | -1%
COc1ccc(-c2csc(-c3[nH]cnc3N)n2)cc1
    -13% | -1.3% | 3 | -11%
O=C(O)c1cc(-c2ccc(-c3ccc(F)cc3)o2)nc2ccccc12
    ? | ? | / | -20%
CSc1cccc(NC(=S)NC(=O)CCc2ccccc2)c1
    -3% | -1.1% | / | -5%
COc1cccc(N2CCN(C(=O)c3ccc(CS(=O)Cc4ccccc4Cl)o3)CC2)c1 (stereo unspecified)
    -4% | 3.6% | / | 11%
O=C(c1ccc(F)cc1)C1CCN(C(=O)c2ccccc2)CC1
    19% | -0.2% | / | 5%
Cc1cc(C(F)(F)F)cc(NNC(=O)NC(=O)c2c(F)cccc2Cl)n1
    23% | -1.9% | -4 | 0%
CCCC(c1nnnn1Cc1ccc2c(c1)OCO2)N1CCC(C(N)=O)CC1 (stereo unspecified)
    2% | 0.3% | -11 | -1%
CCCCn1c(N)c(N(CC)C(=O)c2ccco2)c(=O)[nH]c1=O
    13% | 0.2% | / | /
COc1cccc(N(CC(=O)NC(C)(C)C)C(=O)C2CSC(=O)C2)c1 (stereo unspecified)
    7% | -2.3% | 5 | -1%

# Of the compounds above, two contain a tert-butyl group:
# The line under a structure holds: Rango dissoc inh | Rango-impB inh | GLA inh pH 4.5 | miR-21 reporter
CCN(CC)C(=O)N1CCC(NC(=O)c2ccc(C(C)(C)C)cc2)CC1
    -12% | 1.0% | 0 | 8%
COc1cccc(N(CC(=O)NC(C)(C)C)C(=O)C2CSC(=O)C2)c1 (stereo unspecified)
    7% | -2.3% | 5 | -1%

# Following part
# The line under a structure holds: Rango dissoc inh | Rango-impB inh | GLA inh pH 4.5 | miR-21 reporter
Cc1ccc(OCC(=O)NCCC2=CCCCC2)cc1
    -3% | ? | 8 | -13%
Cc1cccc(Nc2ncnc3c2cnn3C)c1
    -11% | 3.8% | 9 | -24%
Cc1ccc(S(=O)(=O)c2c(C)cc(C)nc2N2CCCC2)cc1
    0% | -1.9% | -6 | -2%
CC(C)N1CC2=C(C1=O)C(c1ccc(O)cc1)NC(=O)N2C (stereo unspecified)
    -5% | 0.3% | -8 | -1%
CC1(C)CC(=O)/C(=C(/O)Cc2ccccc2)C(=NCCc2ccccc2)C1
    6% | 2.4% | 0 | 0%
Cc1ccccc1NC(=O)C1c2cccc[n+]2CC(=O)N1c1c(C)cccc1C (stereo unspecified)
    ? | ? | -3 | -7%
COc1ccc(OCC(=O)N2CCC(Cc3ccccc3)CC2)cc1
    4% | -0.4% | / | 0%
COC(=O)CSc1nc(NC(C)(C)C)nc(N(C)C)n1
    ? | -0.6% | -2 | -32%
CCCCn1c2c(c(=O)n(C)c1=O)C(CC(=O)OCC(=O)Nc1cccc(C(F)(F)F)c1)C(=O)N2 (stereo unspecified)
    -6% | -4.9% | -4 | 0%
COc1c(Br)cc(Br)cc1/C=N/NC(=O)c1cccnc1
    -13% | ? | / | 27%
COc1ccc(C)cc1NC(=O)CN1CCN(c2ccc(F)cc2)CC1
    4% | 1.4% | -7 | -7%
CC1=C(C(=O)OCc2ccccc2)C(c2ccco2)C2=C(CC(C)(C)CC2=O)N1 (stereo unspecified)
    -4% | 0.4% | -1 | 5%
COC(=O)Cc1[nH]nc2c1C(c1cccc(OC)c1OC)C(C#N)=C(N)O2 (stereo unspecified)
    15% | -3.6% | 1 | 3%
CCN(CCNC(=O)c1cccc(N2CCCC2=O)c1)c1ccccc1
    -1% | -1.5% | 2 | -22%
COc1ccccc1C(=O)NC(=S)Nc1ccc(N2CCCC2)cc1
    1% | -0.6% | -1 | -12%
O=C(CNS(=O)(=O)c1cccc(Br)c1)NCC1CCCCC1
    31% | -2.5% | / | -2%
C=CCNC(=S)N1CCN(CCN=Cc2c(C)[nH]n(-c3ccc([N+](=O)[O-])cc3)c2=O)CC1
    1% | -1.8% | 3 | -12%
COc1cccc(CNC(=O)C2CCN(S(=O)(=O)c3ccc(C)cc3)CC2)c1
    9% | 0.3% | / | 1%
Cc1cccc(N(C(=O)c2ccc(CN3CCOCC3)o2)C(C(=O)NC2CCCCC2)c2ccc(F)cc2)c1 (stereo unspecified)
    -6% | -0.5% | 1 | -6%
COc1ccc(/C=N/NC(=O)c2cccnc2)cc1CN1CCc2cc(OC)c(OC)cc2C1C (stereo unspecified)
    -6% | -3.7% | 1[21.1 µM] | -1%
O=C(Oc1cccc2cccnc12)c1cccc(N2C(=O)C3C4CCC(C4)C3C2=O)c1 (stereo unspecified)
    -12% | -3.2% | -7 | 3%
CC1(C)COC2(OC1)C(=O)Nc1ccccc12
    -2% | -0.8% | 5 | -2%
COc1ccc(N(CC(=O)N2CCN(C)CC2)S(=O)(=O)c2ccccc2)cc1OC
    2% | 4.7% | 3 | -4%
Nc1nonc1-c1nc2ccccc2n1CC(=O)N/N=C/c1ccc(-c2cccc(C(=O)O)c2)o1
    -1% | ? | -9 | -18%
Cc1cc(-c2nnc(CCC(=O)N(CC3CC3)CC3CCCO3)o2)no1 (stereo unspecified)
    1% | 0.3% | 7 | 3%
O=C(Nc1cccc2c1CCCC2)C1CCN(c2nnnn2-c2ccccc2)CC1
    -13% | -0.2% | -2 | -1%
COc1ccc2cc(-c3ccon3)ccc2c1
    0% | -2.2% | / | -51%
CN(c1c[nH]c(=O)[nH]c1=O)C1CCCCC1
    -10% | 0.5% | -13 | -1%
CC(C)(C)c1ccc(S(=O)(=O)NCc2ccccn2)cc1
    -5% | -0.8% | / | -16%
COc1ccc(C)cc1NC(=O)C(Sc1nnc(-c2cccs2)o1)c1ccccc1 (stereo unspecified)
    7% | 3.9% | 6 | -12%
Nc1ccc2nc(CCCO)[nH]c2c1
    -4% | ? | -3 | 4%
CC(C=NNC(=O)C(=O)NN=CC(C)=Cc1ccccc1)=Cc1ccccc1
    -15% | 0.0% | / | /
CCOC(=O)C(C)n1cnc2c(nnn2-c2cccc(Cl)c2)c1=O (stereo unspecified)
    -8% | -3.6% | -1 | -13%
